Rango dissoc inh = prevents RanGTP from dissociating the Rango-importin beta complex. O95149+P62826. Biochemical FRET Rango-importin beta, RanGTP-induced dissociation. Potency, µM (series often up to 46.1 µM), for inactives: top-dose activity change, negative = inhibition. 340,000 tested, 0.071% active. AID 540253; active means falling FRET ratio curve, often poorly fitted, with flat reads before Ran was added; inconclusive means other falling curves, or compound fluorescence or quenching; inactive means flat or rising ratio curve;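 also: potency is read from the fitted curve at half-maximal effect; % of control where 0% means no effect; nearly all actives have a fitted effect of over 45% in size; -100% = wells without RanGTP and RCC1; the record marks most hits as doubtful in a second field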
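Rango/importin beta premix (0.1/0.25 uM final), PBS + 1 mM DTT + 0.02% Tween-20 + 0.1% BSA; cpd 5 min RT; FRET pre-read; + RanGTP-RCC1 (0.6 uM Ran, 2 mM GTP, 0.2 uM RCC1); 45 min RT; FRET post-read, ex 430, em 486/530 nm.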
miR-21 FLuc = raises the signal of a miR-21 reporter. Potency, µM (series often up to 38.3 µM), inactives show at the top dose reporter change, positive = more light. HeLa miR-21 FLuc reporter, luciferase, 48 h. 340,000 tested, under 10 active. AID 2288; active = well fitted rising curve with a large enough effect; inconclusive = small, poorly fitted or top-dose-only effect; inactive = no such curve, though single readings can be large or run the other way;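 also: % of control where 0% means no effect; miR-21 action dims this reporter so a rising signal means less miR-21 action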
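Compounds were titrated across several concentrations (up to approximately 40 uM) and incubated 48 hours with HeLa miR-21-FLuc reporter cells (miR-21 target sequence downstream of FLuc, endogenous miR-21). Readout was firefly luciferase luminescence after lytic detection reagent.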
Rango complex inh = prevents formation of the Rango-importin beta complex; Rango CFP/YFP FRET sensor + importin beta, 45 min; Potency, µM (highest dose often 92.2 µM), without a hit: at the highest dose inhibition of complex formation; 340,000 tested, 0.031% active; AID 540263; active = rising FRET ratio curve, often small or poorly fitted; inconclusive = mostly compound fluorescence or quenching in the first reads; inactive = flat curves in all reads;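 also: potency is read from the fitted curve at half-maximal effect; 0% = DMSO wells and 100% = buffer wells lacking importin beta; nearly all actives have a fitted effect of over 15% in size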
Target sequence (Q14974 whole entry, looked up): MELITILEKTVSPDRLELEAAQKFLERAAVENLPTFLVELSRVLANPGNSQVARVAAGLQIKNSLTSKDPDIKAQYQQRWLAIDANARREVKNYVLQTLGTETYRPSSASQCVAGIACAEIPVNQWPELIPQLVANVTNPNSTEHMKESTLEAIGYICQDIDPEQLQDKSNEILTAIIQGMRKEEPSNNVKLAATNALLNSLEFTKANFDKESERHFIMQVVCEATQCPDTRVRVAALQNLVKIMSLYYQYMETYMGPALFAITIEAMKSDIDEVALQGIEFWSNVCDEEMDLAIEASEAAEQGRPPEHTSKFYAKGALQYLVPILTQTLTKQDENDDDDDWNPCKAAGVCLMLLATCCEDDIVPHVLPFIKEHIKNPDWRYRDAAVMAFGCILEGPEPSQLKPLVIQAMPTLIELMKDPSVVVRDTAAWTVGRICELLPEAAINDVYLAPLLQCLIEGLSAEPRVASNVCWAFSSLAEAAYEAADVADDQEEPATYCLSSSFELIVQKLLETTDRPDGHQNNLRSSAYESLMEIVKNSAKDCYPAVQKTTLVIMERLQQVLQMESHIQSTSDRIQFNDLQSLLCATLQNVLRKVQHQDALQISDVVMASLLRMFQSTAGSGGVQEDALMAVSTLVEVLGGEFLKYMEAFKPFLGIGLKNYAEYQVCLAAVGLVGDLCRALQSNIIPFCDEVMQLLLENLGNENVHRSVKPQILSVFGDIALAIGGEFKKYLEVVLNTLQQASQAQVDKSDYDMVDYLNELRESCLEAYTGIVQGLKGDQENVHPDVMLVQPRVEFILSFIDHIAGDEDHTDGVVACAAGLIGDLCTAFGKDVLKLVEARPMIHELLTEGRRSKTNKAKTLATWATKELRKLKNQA
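FRET biosensor (snurportin 1 IBB flanked by EYFP and cerulean), 50 nM, with compound 5 min, then 0.125 microM importin beta in PBS, 1 mM DTT, 0.02% Tween-20, 0.1% BSA. CFP/YFP ratio read after 45 min at room temperature; pre-read flags interference.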
GLA inh pH 4.5 = blocks human alpha-galactosidase A at pH 4.5; P06280; purified enzyme, 4-MU-alpha-Gal fluorescence, pH 4.5; activity change, negative = inhibition, % at 105 µM; 230,000 tested, under 10 active; AID 1467; inconclusive = small, poorly fitted or top-dose-only inhibition, or a rising curve; inactive = flat fitted curve, though single readings scatter; no compound was filed as active;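 also: 0% = full activity with enzyme and -100% = basal without enzyme; dose as in the result columns while the protocol names 77 µM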
An asterisk follows results filed as active; u = inconclusive; x = no result given; & = joins results of further samples.

SMILES	Rango dissoc inh	miR-21 FLuc	Rango complex inh	GLA inh pH 4.5
COc1ccc(CNC(=O)CSc2nnc3c(n2)[nH]c2ccc(C)cc23)cc1	-14.9%	-2.8%	3.6%	x
Cc1cc(=O)oc2cc(OCC(=O)OCC(=O)NCCc3ccccc3)ccc12	1.1%	0.5%	-2.2%	8.7
N#Cc1ccc(-c2ccc(OCC(=O)NCC(=O)Nc3ccc(F)c(F)c3F)cc2)cc1	-0.3%	-1.8%	-3.9%	-3.0
Cc1ccc(C(=O)C2CCN(CC(=O)Nc3ccccc3C)CC2)cc1	11.7%	-6.7%	-0.4%	x
O=C(Cc1cccc(NC(=O)C2CCCN(C(=O)C3CC3)C2)c1)Nc1cccc(C(=O)N2CCCC2)c1 (configuration not stated)	11.8%	x	u	x
COc1cc(OC)c(C(=O)N2CCCC2)cc1OC	0.1%	-6.2%	-1.2%	7.1
C=CCN=C(NC#N)SCc1ccccc1	-2.1%	-7.9%	2.2%	-25.3
COc1ccc(CNC(=O)[C@H](Cc2ccccc2)NC(=O)C2CCN(C(=O)[C@H](C)N)CC2)cc1	0.2%	-0.1%	-0.2%	x
CCN1C(=O)CC(c2ccco2)Sc2ccccc21 (configuration not stated)	-3.3%	-9.7%	1.0%	-0.5
Cc1nc(SCC(=O)O)c(C#N)c(C)c1CC(=O)c1ccccc1	3.3%	8.8%	2.3%	-0.2
CCn1c(SCC(=O)N2CCN(c3ccccc3)CC2)nnc1-c1c[nH]c2ccccc12	u	22.5%	-3.5%	3.5
N#Cc1ccc(C23OCCN2CCn2nc4ccccc4c23)cc1 (configuration not stated)	u	x	u	x
O=C(OC1CCOC1=O)C1CCN(S(=O)(=O)c2c(Cl)cccc2Cl)CC1 (configuration not stated)	u	x	1.3%	x
CC(=O)c1ccc(N2CCC(C)CC2)c(F)c1	0.5%	2.5%	0.3%	-10.4
O=C(CC1NCCNC1=O)Nc1ccc2c(c1)OCCO2 (configuration not stated)	0.4%	-4.8%	0.2%	5.5
CCOC(=O)C1CCN(C(=O)COC(=O)/C=C/c2ccc([N+](=O)[O-])cc2)CC1	-6.9%	x	0.0%	x
Cn1[nH]c(C(F)(F)F)cc1=O	2.0%	0.0%	0.6%	0.8
Cc1nc2ccc(C(=O)c3ccccc3)cc2[nH]1	-9.8%	-47.1%	-2.8%	-1.6
COc1ccc(N2CCN(C3CC(=O)N(Cc4ccc(N5CCCC5=O)cc4)C3=O)CC2)cc1 (configuration not stated)	-7.1%	1.0%	0.6%	6.0
COc1ccc(Nc2oc(-c3ccccc3F)nc2C#N)cc1	-6.8%	-57.2%	1.4%	u
CCN(CC)S(=O)(=O)c1ccc(C(=O)N2CCN(C(=O)c3ccco3)CC2)cc1	u	x	-0.8%	x
COCc1nnc(NC(=O)CS(=O)(=O)Cc2ccccc2)s1	-11.1%	-8.3%	u	-2.3
Cc1ccc(C(C(=O)NC2CCCC2)N(C(=O)CNC(=O)c2ccco2)c2ccccc2)o1 (configuration not stated)	-7.7%	-6.2%	-4.8%	x
CCCCN(C)C(=O)Cn1cnc2sc(C)c(S(=O)(=O)N3CCN(c4ccccc4OC)CC3)c2c1=O	-2.1%	6.4%&6.5%	-4.0%	x
O/N=C/c1ccccc1Oc1ccccc1	-1.3%	-0.6%	3.2%	-1.6

(listing goes on)
SMILES	Rango dissoc inh	miR-21 FLuc	Rango complex inh	GLA inh pH 4.5
Cc1[nH]c2ccccc2c1C(=O)/C=C\c1ccccc1Cl	-4.6%	-57.3%	2.1%	5.1
Cc1ccc(S(=O)(=O)N2CCN(C(=O)c3ccc(Br)o3)CC2)c(C)c1	5.0%	-1.0%	-1.7%	x
CC(C)Oc1ccc(C2C(C(=O)c3ccco3)=C(O)C(=O)N2Cc2cccnc2)cc1 (configuration not stated)	-9.4%	-15.1%	4.0%	-5.3
COc1ccc(NC(=O)Nc2ccccn2)cc1OC	u	-45.8%	-1.5%	-1.6
CSc1ccccc1NC(=O)c1ccccc1N(C)S(C)(=O)=O	-9.7%	-3.5%	-6.0%	15.8
COc1ccc(OCC(O)CNS(=O)(=O)c2ccc(NC(C)=O)cc2)cc1 (configuration not stated)	-7.6%	5.4%	-1.9%	x
Cc1ccc(OCC(=O)N2CC3(C)CC2CC(C)(C)C3)cc1 (configuration not stated)	-4.9%	0.2%	-1.7%	-12.1
CNC(=O)c1ccc(-c2ccccc2)s1	-3.5%	-53.6%	-3.2%	-9.1
Cn1c(SCC(=O)N2CCc3ccccc32)nc2cccnc21	14.9%	1.8%	-1.0%	3.9
CCCOc1cc(C)c(Cl)cc1S(=O)(=O)N(CC)CC	-4.1%	-3.1%	0.0%	2.6
CC(=O)/C(=N/Nc1ccccc1)Sc1nnc(C(O)c2ccccc2)n1-c1ccccc1 (configuration not stated)	0.3%	-10.2%	-3.1%	-1.3
CCc1nn2c(N3CCOCC3)cc(C)nc2c1-c1ccccc1	7.0%	-0.4%	0.1%	x
CC1CC(C)CN(C(=O)CCc2ccccc2)C1 (configuration not stated)	0.1%	-12.4%	-2.5%	0.4
O=C(NC1CCCC1)C(c1ccsc1)N(C(=O)Cc1cccs1)c1cccc(F)c1 (configuration not stated)	13.7%	-8.7%	-3.7%	6.2
Fc1ccc(-c2csc3ncnc(Nc4ccc(N5CCOCC5)cc4)c23)cc1	1.8%	-16.5%	-1.0%	4.5
COc1ccc(OC)c(NC(=O)/C=C/c2ccc(S(=O)(=O)N3CCOCC3)cc2)c1	0.5%	x	-1.7%	x
Cc1nnsc1-c1nnc(SCC(=O)c2ccccc2)n1C1CC1	4.7%	-14.8%	-0.1%	7.3
Cc1cccc(-n2nc([N+](=O)[O-])c(N3CCN(C(=O)c4ccco4)CC3)[n+]2[O-])c1	-7.3%	-2.4%	-2.3%	1.7
CC(=O)Oc1ccc(C2OC(=O)c3ccccc3N2C(C)=O)cc1 (configuration not stated)	u	3.5%	-0.8%	x
CCCCn1c(SCC(=O)NCc2ccco2)nc2c(sc3ccccc32)c1=O	-7.7%	1.8%	-4.0%	3.2
CCOC(=O)c1[nH]c2ccc(C)cc2c1NC(=O)CN1CCCCC1	39.6%	-12.2%	0.2%	0.2
COc1cc(SC)ccc1C(=O)Nc1ncc(Cl)cc1Cl	16.8%	-63.2%	-2.6%	4.4
CC(=O)Nc1ccc(S(=O)(=O)N(C)CC(=O)Nc2nc3ccccc3[nH]2)cc1	0.3%	x	0.0%	x
COc1cccc(OC)c1OCC(C)CNCC1CCCO1 (configuration not stated)	13.1%	-0.2%	6.6%	4.2
CC1CCN(C(=O)c2cc(-c3ccccc3O)on2)CC1	-6.4%	-58.1%	0.5%	-1.7

Going on with the list.
SMILES	Rango dissoc inh	miR-21 FLuc	Rango complex inh	GLA inh pH 4.5
c1ccc(CSc2ccc(-c3cccs3)nn2)cc1	-8.1%	-66.5%	-1.9%	-1.8
Cc1ccc(Sc2ccc(/C=C3/C(=O)NN(c4ccccc4)C3=O)o2)cc1	-4.5%	-0.4%	u	-4.2
O=C(NCCc1ccc(Cl)cc1)c1cc2ccccn2n1	-11.5%	-21.0%	1.9%	0.0
CCCCCc1cc(=O)oc2c(C(CCN(CC)CC)c3ccc(OC)cc3)c(OC)cc(OC)c12 (configuration not stated)	-12.4%	u	5.7%	-2.0
Cc1cc(=O)n2c3ccccc3n(CC(O)CN3CCCCC3)c2c1C#N (configuration not stated)	-14.4%	-5.8%	-4.5%	1.4
C=CCNC(=S)NNC(=O)c1cc(C)nc2ccccc12	9.5%	-10.0%	1.7%	0.1
CCc1nnc(NC(=O)CCC(=O)N2CCC(Cc3ccccc3)CC2)s1	-11.5%	3.0%	-0.1%	x
O=C(Cc1ccccc1[N+](=O)[O-])Nc1nccs1	-1.8%	-3.9%	3.0%	4.4
CCOC(=O)Cc1csc(NC(=O)C(NC(=O)C2CCCCC2)C(C)C)n1 (configuration not stated)	-11.1%	-0.4%	-4.2%	-2.2
CCn1c(N)c(C(=O)Nc2ccccc2C(=O)OC)sc1=S	0.6%	-8.4%	-0.6%	-8.6
O=c1cc(-c2ccc([N+](=O)[O-])cc2)c2cc3c(cc2[nH]1)OCCO3	-7.2%	-1.1%	0.2%	5.1
Cc1cc(=O)[nH]c(SCC(=O)N2CCCc3ccccc32)n1	-16.7%	-6.2%	-7.3%	3.2
COc1ccc(OCC(=O)NNC(=O)c2ccccc2OCc2c(C)noc2C)cc1	35.5%	x	5.4%	x
CC(=O)N1CCN(S(=O)(=O)c2cccc(C(=O)Nc3ccc(C)cn3)c2)CC1	11.3%	-28.2%	3.8%	x
C=C1CC2C3CC[C@@]4(OCOC45COCO5)[C@@]3(C)C(O)CC2[C@@]2(C)CCC(=O)C=C12 (some centres not stated)	-7.1%	u	-0.2%	-0.2
NC(=O)N/N=C/c1ccc(N2CCOCC2)s1	u	-13.3%	u	-15.3
O=c1c2ccccc2cnn1Cc1ccc(Cl)c(Cl)c1	-11.3%	-10.5%	-1.1%	x
FC(F)(F)c1ccc(-c2nnc(-c3ccccn3)c(-c3ccccn3)n2)nc1	-5.1%	1.8%	1.3%	5.2
CSc1nc(C)c(CCOCc2ccccc2)c(=O)[nH]1	1.3%	-3.1%	2.9%	2.3
CC12CCC(=O)C=C1CCC1C2C(=O)CC2(C)C1CCC2(O)C(=O)CO (configuration not stated)	-5.9%	-3.2%	-3.8%	x
O=S(=O)(NCCn1cccc1)c1ccc2ccccc2c1	-7.1%	-4.6%	0.0%	-4.5
Cc1ccc(NC(=O)C(OC(=O)c2ccc(NC(N)=O)cc2)c2ccccc2)cc1Cl (configuration not stated)	u	0.4%	4.3%	-1.1
Cc1cccc(C(=O)OCN2C(=O)c3ccccc3C2=O)c1[N+](=O)[O-]	-2.3%	3.2%	0.0%	x
CCOC(=O)C1=CN(Cc2cccc(F)c2)S(=O)(=O)NC1c1ccc(Br)cc1F (configuration not stated)	-0.1%	x	-1.1%	x
COc1ccc(NC(=O)CC2C(=O)N(C)C(=S)N2CCc2ccccc2)cc1 (configuration not stated)	-3.3%	21.4%	-0.1%	-3.6

The list continues:
SMILES	Rango dissoc inh	miR-21 FLuc	Rango complex inh	GLA inh pH 4.5
COCCN(Cc1cc2cc3c(cc2nc1Cl)OCO3)C(=O)Nc1ccc(F)cc1	24.0%	-3.9%	-0.7%	-3.7
CCOC(=O)c1c(OCC)[nH]c2ccc(O)cc12	15.3%	-0.1%	1.6%	5.4
Cc1ccc(NC(=O)CCc2ccccc2)cc1S(=O)(=O)N1CCOCC1	-2.2%	x	0.0%	x
COc1ccc(OC)c(-c2nc(C(N)=O)c3[nH]c(=O)n(-c4ccc(F)cc4)c3n2)c1	-0.3%	-9.8%	-1.5%	-1.5
O=S(=O)(Nc1ccc(Oc2ncccn2)c(Cl)c1)c1ccc(F)cc1	-16.2%	4.0%	5.1%	-7.2
CC(C)C(NC(=O)CSc1ccc(Cl)cc1)C(C)C	-8.4%	5.4%	0.9%	-10.8
CC(C)Oc1ccccc1/C=N/NC(=O)c1ccc(F)cc1	-11.4%	0.9%	0.3%	-0.3
O=C(N/N=C/c1cccnc1)c1ccccc1OCc1cccc(Br)c1	0.4%	7.8%	-1.2%	6.2
O=C(CSc1ccc2nnc(-c3ccc(F)cc3)n2n1)N1CCOCC1	-17.6%	x	-3.1%	x

7 entries already listed, sorted by length of the SMILES, low to high.
SMILES	Rango dissoc inh	miR-21 FLuc	Rango complex inh	GLA inh pH 4.5
CCOC(=O)c1c(OCC)[nH]c2ccc(O)cc12	15.3%	-0.1%	1.6%	5.4
O=C(N/N=C/c1cccnc1)c1ccccc1OCc1cccc(Br)c1	0.4%	7.8%	-1.2%	6.2
O=C(CSc1ccc2nnc(-c3ccc(F)cc3)n2n1)N1CCOCC1	-17.6%	x	-3.1%	x
Cc1ccc(NC(=O)CCc2ccccc2)cc1S(=O)(=O)N1CCOCC1	-2.2%	x	0.0%	x
COc1ccc(NC(=O)CC2C(=O)N(C)C(=S)N2CCc2ccccc2)cc1 (configuration not stated)	-3.3%	21.4%	-0.1%	-3.6
COCCN(Cc1cc2cc3c(cc2nc1Cl)OCO3)C(=O)Nc1ccc(F)cc1	24.0%	-3.9%	-0.7%	-3.7
COc1ccc(OC)c(-c2nc(C(N)=O)c3[nH]c(=O)n(-c4ccc(F)cc4)c3n2)c1	-0.3%	-9.8%	-1.5%	-1.5

Source: PubChem

A portion of the library; rates above refer to the full screens.
